Bioassay records deposited in PubChem BioAssay by several laboratories.
PKD1 inh: inhibitors of human PKD1 kinase, biochemical, fluorescence polarization; Serine/threonine-protein kinase D1 (Homo sapiens), Q15139; PKD1 kinase fluorescence polarization assay; inhibition, %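 (about 10 µM by stock and volumes)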; 200,000 compounds, 0.056% hits; AID 797, 2007;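 active = inhibition of 50% or more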;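 also: controls were vehicle for no effect and a reference inhibitor for full effect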
GALR2 agonist: GALR2 receptor agonists, primary screen, cell-based; Galanin receptor type 2 (Homo sapiens), O43603; GALR2-expressing cells, agonist activation read-out; activation, %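 (tested at 5 µM)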; 140,000 compounds, 0.48% hits;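 active = above mean plus 3 SD of all compounds, about 5% in these data, not always enough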;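 also: 0% = vehicle buffer wells and 100% = reference agonist at full effect; tested in CHO reporter cells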
Target sequence (O43603 whole entry, looked up): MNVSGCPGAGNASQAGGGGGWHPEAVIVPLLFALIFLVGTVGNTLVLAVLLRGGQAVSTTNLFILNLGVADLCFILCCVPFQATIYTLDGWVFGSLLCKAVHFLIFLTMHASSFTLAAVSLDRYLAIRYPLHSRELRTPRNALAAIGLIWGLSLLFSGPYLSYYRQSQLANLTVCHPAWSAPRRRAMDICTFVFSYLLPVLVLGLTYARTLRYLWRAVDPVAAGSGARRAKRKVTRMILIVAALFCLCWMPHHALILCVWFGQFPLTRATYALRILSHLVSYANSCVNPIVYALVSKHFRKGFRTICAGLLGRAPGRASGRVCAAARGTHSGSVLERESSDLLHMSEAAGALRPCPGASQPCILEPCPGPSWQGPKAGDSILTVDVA
RGS16-Gao: modulators of RGS16 binding to Galphao, primary screen, biochemical, human proteins, multiplexed bead flow cytometry. Regulator of G-protein signaling 16 (Homo sapiens) + Guanine nucleotide-binding protein …. bead-based flow cytometry RGS16-Galphao binding, fluorescence; actives lie on both sides. binding response (% of control), % at 10 µM. 220,000 compounds, 0.38% hits;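 active = below 25% or above 175%, edge rows of some plates excepted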;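 also: Galphao activated by GDP with aluminum fluoride before binding; 100% = wells without compound and 0% = beads without RGS; some results beyond the cut were filed as inactive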
Target sequence (O15492 whole entry, looked up): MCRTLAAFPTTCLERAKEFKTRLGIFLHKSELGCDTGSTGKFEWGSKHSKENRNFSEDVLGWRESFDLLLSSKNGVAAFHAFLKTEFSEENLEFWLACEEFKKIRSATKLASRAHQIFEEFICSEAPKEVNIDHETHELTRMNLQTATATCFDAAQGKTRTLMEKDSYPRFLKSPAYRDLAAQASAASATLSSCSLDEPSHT
Target sequence (P09471 whole entry, looked up): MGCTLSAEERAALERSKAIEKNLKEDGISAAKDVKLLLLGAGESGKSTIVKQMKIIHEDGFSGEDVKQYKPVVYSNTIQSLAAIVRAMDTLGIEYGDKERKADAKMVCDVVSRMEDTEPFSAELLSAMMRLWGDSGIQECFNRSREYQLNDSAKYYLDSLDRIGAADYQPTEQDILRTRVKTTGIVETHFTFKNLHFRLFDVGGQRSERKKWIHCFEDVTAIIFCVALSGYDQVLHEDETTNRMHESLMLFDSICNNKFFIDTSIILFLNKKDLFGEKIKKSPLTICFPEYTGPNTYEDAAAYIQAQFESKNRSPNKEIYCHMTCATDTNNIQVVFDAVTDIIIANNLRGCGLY
Insulin prom inh: inhibitors of insulin promoter-driven GFP, primary screen, imaging, TRM-6 cells (human fetal islet line), eGFP reporter, cell count. reporter expression induced with tamoxifen. inhibition, % at 2 µM. 130,000 compounds, 0.9% hits;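 active = inhibition above the mean plus 3 SD, with well images judged a real hit on visual review, cut at about 60% in these data, passing the limit was not always enough; inconclusive = inhibition over the cutoff but images rejected on review; inactive = inhibition not above the cutoff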
HSV replic up: enhancers of HSV replication in host cells, fold increase, host cell viability; HSV replication augmentation in cells; maximum fold increase; 220,000 compounds, 0.005% hits; AID 1956, 2009;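 active = peak rise of 1.5-fold or more in the series; inconclusive = self-fluorescent or not available for retest; tested in PC3 cells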;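 also: first round at 10 µM; read as green reporter fluorescence; hits show the peak of a series up to 25 µM; 1 = signal of infected wells without compound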
Insulin prom inh cell count: recorded beside Insulin prom inh, whose call it bears; normalized cell count, %; measured here: cell count, toxicity; reference of the scale not given here;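 cells exposed to compound for 48 h; stained nuclei by imaging scaled within each plate; lower means fewer cells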
HSV replic up primary fold: also measured in HSV replic up; calls as there; fold increase; compound at 10 µM; measured here: primary screen fold increase 10 uM; tested in PC3 cells;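 GFP signal in the first replicate; 1 = infected wells without compound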
Numbers without * were called inactive; i = inactive; ? = inconclusive; / = no result given.

SMILES	PKD1 inh	GALR2 agonist	RGS16-Gao	Insulin prom inh	Insulin prom inh cell count	HSV replic up	HSV replic up primary fold
COc1cc(C(=O)Nc2nncs2)cc(OC)c1OC	-14	-1.3	92	22	79	i	0.86
O=c1[nH]cnc2c([N+](=O)[O-])cccc12	-8	-1.3	102	-30	58	i	0.99
CCOC(=O)CN(C(=O)CSc1nnc(-c2ccncc2)n1CCCOC)c1ccccc1	-6	-3.0	102	32	40	i	0.69
CCc1ccc(CCC(=O)Nc2ccc(C)c(C)c2)o1	-7	-1.7	111	-19	107	i	1.1
N#CNC(=Nc1ccc(F)cc1)SCc1ccccc1	6	-0.2	102	3	90	i	1
COc1ccc(N2CCN(C(=O)c3c(-c4ccccc4)noc3C)CC2)cc1	-11	-0.5	106	/	/	i	0.83
CCc1ccc(OCC(O)CN2CCN(c3ccccc3)CC2)cc1 (configuration not stated)	-4	-0.3	95	/	/	i	1
COc1ccc(-c2c[n+](CC(=O)N3c4ccccc4Sc4ccccc43)c3n2CCC3)cc1	/	/	105	/	/	i	0.94
CN(CC(=O)NCc1ccccc1)S(=O)(=O)c1cnc[nH]1	0	-1.6	98	10	86	i	0.94
CC(C)(C)C(=O)Nc1ncc(C(F)(F)F)cc1Cl	3	-1.4	100	-39	42	i	0.97
C/C=C(\C)c1nnc(NC(=O)OCC)s1	-7	1.2	99	11	66	i	0.93
COc1ccc(C(=O)OCC(=O)NC2CC2)cc1[N+](=O)[O-]	-18	0.8	108	0	142	i	1
COC(=O)CN1C(=O)C(C)(C)Oc2ccc(C(=O)NC3CC3)cc21	-6	-1.6	100	35	91	i	0.95
COc1cccc(OC)c1-c1nn2c(-c3ccco3)nnc2s1	-2	-0.7	76	/	/	i	0.72
Cc1nn(C(C)C(=O)NCC2CCCO2)c(=O)c2cc3occc3n12 (configuration not stated)	6	-0.7	94	/	/	/	/
c1ccc2sc(C3CCN(Cc4nnnn4Cc4ccc5c(c4)OCO5)CC3)nc2c1	1	-0.2	97	20	140	i	0.91
O=C(CSc1nnc(C2CCCCC2)n1Cc1ccccc1)NCc1ccco1	-1	-2.7	92	12	105	i	0.98
NC(=O)NC(=O)CSc1cccc(C(F)(F)F)c1	-10	-0.5	105	-5	100	i	0.77
CCOc1ccc(Cn2nnc(C(=O)NCc3ccccc3)c2N)cc1	8	-1.9	102	/	/	i	1
O=C(NCc1cccnc1)c1ccccc1-c1ccccc1	-8	/	95	/	/	i	0.92
CCCCC(=O)Nc1ccc(NC(=O)c2ccc3c(c2)OCO3)cc1OC	-5	-2.4	127	7	111	i	0.81
CSC1=N/C(=C\c2ccc(Cl)cc2)C(=O)N1N(C)C	/	/	103	/	/	i	0.99
CN(Cc1ccccn1)Cc1nc(-c2ccc(Cl)cc2)no1	-1	/	98	/	/	i	1
CCOC(=O)c1csc(NC(=O)CSc2nnnn2-c2ccc(OC)c(OC)c2)n1	-1	-2.1	98	43	112	i	0.93
O=C1N(Cc2cccnc2)C[C@@H]2C[C@@H](c3cccc(C(F)(F)F)c3)N3CCC[C@@]123	-2	/	104	/	/	i	1.1
O=C(NCc1ccc(F)cc1)Nc1cccc([N+](=O)[O-])c1	-3	/	103	-32	114	i	0.93
c1ccc(C2CC(c3ccccc3)n3c(nc4ccccc43)N2)cc1 (configuration not stated)	3	1.1	99	-11	89	i	0.93
CCn1c(SCc2cccc(F)c2)nnc1-c1cccnc1	-4	/	99	/	/	i	1
COc1ccc(-c2ccc(-c3noc(-c4cccc(OC)c4)n3)c(OC)n2)cc1	-14	-2.1	103	/	/	i	0.89
Cc1ccc(NC(=O)C(Nc2cccc(C)c2)c2ccccc2)cc1 (configuration not stated)	0	-1.3	42	22	129	i	0.96
CCC(C)NC(=O)c1ccc2c(Cl)c3c(nc2c1)CCC3 (configuration not stated)	/	/	102	/	/	i	0.97
O=C(OCc1csc(-c2ccccc2)n1)c1cccs1	-7	-0.8	47	/	/	i	0.99
CCOC(=O)CC(=O)CSc1nc2c(cc1C#N)CCC2	-1	-1.4	101	27	103	i	0.82
COc1ccc(Nc2cc(C)nc(-n3nc(C)cc3C)n2)cc1	57*	0.3	110	/	/	i	0.54
CC(NC(=O)c1cc(F)c(F)cc1Cl)c1ccncc1 (configuration not stated)	6	/	100	/	/	i	1
COC(=O)c1cc2ccc(OC)c(OC)c2c(=O)s1	-12	-2.5	99	50	72	i	1
O=C(C/C=N/OCc1c(Cl)cccc1Cl)c1ccccc1	3	-0.5	122	15	134	i	1.2
COc1ccccc1-c1ccc(SCC(=O)Nc2cc(C)on2)nn1	-3	/	93	18	107	i	1
COc1cccc(N(C(C)=O)c2nc(C)cc(C)c2C#N)c1	-3	0.4	94	3	158	i	1
CC(=O)c1ccc(NC(=S)NCCc2cccc(Cl)c2)cc1	-2	/	100	/	/	i	0.96

Full records, quoted from the list.
`COc1ccccc1-c1ccc(SCC(=O)Nc2cc(C)on2)nn1` reads PKD1 inh = -3; GALR2 agonist = /; RGS16-Gao = 93; Insulin prom inh = 18; Insulin prom inh cell count = 107; HSV replic up = i; HSV replic up primary fold = 1
`COc1ccc(Nc2cc(C)nc(-n3nc(C)cc3C)n2)cc1` reads PKD1 inh = 57*; GALR2 agonist = 0.3; RGS16-Gao = 110; Insulin prom inh = /; Insulin prom inh cell count = /; HSV replic up = i; HSV replic up primary fold = 0.54

Next part
SMILES	PKD1 inh	GALR2 agonist	RGS16-Gao	Insulin prom inh	Insulin prom inh cell count	HSV replic up	HSV replic up primary fold
Cc1nnc(-n2cnc3ccccc32)c2ccccc12	-6	-0.6	104	3	47	i	0.92
C=C(C)CSC1=C(C#N)C(c2ccccc2Cl)CC(=O)N1 (configuration not stated)	8	-0.3	93	/	/	i	0.96
COCCCNCCCCOc1ccc(Br)cc1Cl	-1	0.1	106	-75	111	/	/
COc1cc(CC(CC(=O)O)CC(C)OCc2ccccc2)cc(OC)c1 (configuration not stated)	-15	-2.1	112	-4	116	i	1
CCC(C)C(=O)Nc1nnc(SCC(=O)Nc2ccc(F)cc2)s1 (configuration not stated)	-1	/	111	5	93	i	0.68
O=C(/C(N=Nc1cccc([N+](=O)[O-])c1)=C(/O)c1ccc(Br)cc1)C(F)(F)F	/	/	99	/	/	i	0.77
Cc1cc(C)n(-c2ccc(C(=O)OCc3nnc(-c4ccccc4)o3)cc2)n1	-12	-1.5	101	26	122	i	0.85
Cc1ccc2nc(Cl)c(C3CC(c4cccs4)=NN3C(=O)CCC(=O)O)cc2c1 (configuration not stated)	2	-0.1	93	/	/	i	0.97
CNC(=O)C1C2C=CC3(O2)C1C(=O)N(CCOC)C3C(=O)NCc1ccc(OC)cc1 (configuration not stated)	-14	-1.5	105	18	113	i	0.82
Cc1csc(=Nc2ccccc2)n1C	-5	/	105	5	96	i	0.86
O=C(CNC(=S)NC(=O)c1ccc(Cl)cc1)c1ccccc1	-5	0.0	59	19	82	i	0.91
c1csc(C2=Nn3c(nnc3-c3ccncc3)SC2)c1	-11	-2.1	78	28	265	i	0.9
CC(/C=N\NC(=O)c1ccc(C)nc1)=C\c1ccccc1	-24	-1.7	105	-12	130	i	0.92
CCCCSc1nnc(-c2cc3c(C(F)(F)F)nn(C)c3s2)n1C	3	-2.7	39	-20	128	i	0.97
CC(C)(C)C(=O)N1CCC(O)(CS(=O)(=O)Cc2ccccc2)CC1	0	/	113	-11	107	i	1
CCCc1n(CC(O)COC2CCCCC2)c2ccccc2[n+]1C (configuration not stated)	-3	/	100	/	/	i	0.89
CN=C(C)c1c(O)c2ccccc2oc1=O	-8	-1.7	99	-3	128	i	0.81
COc1cccc(N2CCN(C(=O)c3ccc(CSc4nc5ccncc5[nH]4)cc3)CC2)c1	-5	-0.9	91	-7	89	/	/
CCCCOC(=O)c1ccc(NC(=S)NC(=O)c2c(Cl)cnn2C)cc1	1	-3.0	99	-14	167	i	1.1
CC(C)(C)n1cnc(C(N)=O)c1N	-4	-0.8	101	21	173	i	0.93

Two records drawn at random from those above, as already listed:
SMILES	PKD1 inh	GALR2 agonist	RGS16-Gao	Insulin prom inh	Insulin prom inh cell count	HSV replic up	HSV replic up primary fold
COCCCNCCCCOc1ccc(Br)cc1Cl	-1	0.1	106	-75	111	/	/
CN=C(C)c1c(O)c2ccccc2oc1=O	-8	-1.7	99	-3	128	i	0.81

The results go on:
SMILES	PKD1 inh	GALR2 agonist	RGS16-Gao	Insulin prom inh	Insulin prom inh cell count	HSV replic up	HSV replic up primary fold
CCCN(c1ccc(OCC)cc1)S(=O)(=O)c1ccc2c(c1)CCN2C(=O)CCC(=O)O	4	-3.3	87	44	135	i	1.1
CCOC(=O)c1[nH]c2ccccc2c1NC(=O)C1CCCCC1	1	-1.5	100	66	104	i	0.88
O=c1c(OC2OC(CO)C(O)C(O)C2OC2OC(CO)C(O)C(O)C2O)c(-c2ccc(O)cc2)oc2cc(O)cc(O)c12 (configuration not stated)	/	/	83	/	/	i	0.97
O=C(NCC1CCCO1)C1CCN(C(=O)c2ccc(Cl)cc2)CC1 (configuration not stated)	0	-2.2	99	49	165	i	0.78
NS(=O)(=O)c1ccc(CNS(=O)(=O)c2cc(C(=O)O)ccc2Cl)cc1	-2	/	105	6	44	i	1.1
O=C(NCCc1ccc(Cl)cc1)c1cnccn1	2	/	103	/	/	i	1.1
COc1cc(C(=O)N2CCN(c3ncnc4sc(C)c(C)c34)CC2)cc(OC)c1OC	9	-1.8	103	-152	124	i	1
Cc1cc(-c2n[nH]c(=S)n2/N=C/c2ccc(C)s2)n[nH]1	-10	-0.6	100	4	164	i	0.99
Nc1nc(CSc2ncn(-c3ccccc3)n2)cs1	-3	-3.2	100	9	105	i	0.98
Cc1cc(C)c2c(CC(=O)N(CCC#N)Cc3cccnc3)coc2c1	-7	-4.0	99	-170	81	/	/
CCC(C)C(NC(=O)C1CCC(C)CC1)C(=O)NCc1ccccn1 (configuration not stated)	5	-3.1	121	11	102	i	1.1
O=C(CN1CCC(C(=O)c2ccc(F)cc2)CC1)Nc1ccc(F)cc1	-7	-2.5	126	-47	167	i	0.88
CC(=O)c1c(O)cc(O)c(C(C)=O)c1O	/	/	105	/	/	i	0.94
O=[N+]([O-])c1ccc(-c2nnc(CSc3nc(-c4ccccc4)nc4ccc(F)cc34)o2)cc1	3	-1.4	/	6	92	/	/
Cc1c(Cc2ccccc2)sc(/N=C/c2c(O)ccc3ccccc23)c1C(N)=O	-5	0.1	98	/	/	?	/
CC(=O)Oc1ccc(-c2cccc(C(=O)N(C)c3ccc(O)cc3)c2)cc1	-3	/	99	/	/	i	0.87
O=C(CCCSc1nnnn1-c1cccc2ccccc12)c1ccc(F)cc1	-3	-1.6	104	/	/	i	1
O=C(OCCNC(=O)c1ccc2ccccc2n1)c1ccc(F)cc1	-7	-2.8	101	14	113	i	1.2
CC(NC(=O)c1ccccc1)C(=O)NC1=NCCS1 (configuration not stated)	-11	-2.3	102	-22	80	i	0.95
COCCn1c(=NC(=O)C(C)(C)C)sc2cc([N+](=O)[O-])ccc21	-7	-0.8	101	10	120	i	0.92

An excerpt of these results, with values under each structure.
Second line of a record: PKD1 inh, GALR2 agonist, RGS16-Gao, Insulin prom inh, Insulin prom inh cell count, HSV replic up, HSV replic up primary fold
O=C(NCCc1ccc(Cl)cc1)c1cnccn1
 : 2, /, 103, /, /, i, 1.1
COc1cc(C(=O)N2CCN(c3ncnc4sc(C)c(C)c34)CC2)cc(OC)c1OC
 : 9, -1.8, 103, -152, 124, i, 1

Carrying on.
SMILES	PKD1 inh	GALR2 agonist	RGS16-Gao	Insulin prom inh	Insulin prom inh cell count	HSV replic up	HSV replic up primary fold
CCOc1ccc2nc(NCCO)[nH]c2c1	2	0.0	103	/	/	i	0.92
N=C1/C(=C\c2ccc(-c3ccc(C(=O)O)cc3)o2)C(=O)N=C2SC=C(c3ccccc3)N12	/	/	104	/	/	i	0.95
CCc1ccc2nc3nc(C)cc(C)c3c(N)c2c1	-3	-1.1	96	-26	172	i	0.74
Cc1ccc(NC(=O)CNS(=O)(=O)c2ccc(F)cc2)cc1C	3	/	101	/	/	i	0.92
CC(C)CCN1NC2(CCC(C)CC2)NC1=S (configuration not stated)	/	/	100	/	/	i	1.2
CC(=O)N(CC1CCCO1)c1nnc(-c2ccccn2)s1 (configuration not stated)	-14	-0.1	100	0	71	i	1
CC1CN(CC(O)COc2ccc(C(C)C)cc2)CC(C)O1 (configuration not stated)	-2	-0.4	89	24	84	i	0.82
O=C(Nc1ccccc1)C1=C(O)CC(c2ccoc2)CC1=Nc1ccccc1 (configuration not stated)	3	0.4	100	58	139	i	0.97
